UUG fidelity = modulators of start codon recognition fidelity in yeast. S. cerevisiae UUG-firefly luciferase reporter, luminescence/redox ratio. activity score, % at 18.7 µM. 350,000 tested, 0.13% active. AID 602363;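 active = replicate mean at a twofold rise or more, about +100% in these data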;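 note: firefly luciferase made from a UUG start codon reports start codon fidelity; reporter light over untreated wells divided by growth signal over untreated wells; some hits fall short of that in this replicate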
PABP FP inh = blocks human PABP binding to poly(A) RNA | fluorescence polarization | 290,000 tested, 1% active | inhibition, % at 35 µM | P11940 | AID 2014;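 active = 50% or more with normal probe brightness, or confirmed in later tests; inconclusive = above 50% with abnormal brightness, or retests that disagree; inactive = below 50% or failed in later tests; about a fifth of its hits are not listed in these tables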;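 note: calls also rest on retests at 20 µM and on dose response follow-up; controls were probe without protein and protein plus probe with vehicle; some compounds called inactive have numbers as strong as hits; many hits fall short of the cut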
Target sequence (P11940 whole entry, looked up): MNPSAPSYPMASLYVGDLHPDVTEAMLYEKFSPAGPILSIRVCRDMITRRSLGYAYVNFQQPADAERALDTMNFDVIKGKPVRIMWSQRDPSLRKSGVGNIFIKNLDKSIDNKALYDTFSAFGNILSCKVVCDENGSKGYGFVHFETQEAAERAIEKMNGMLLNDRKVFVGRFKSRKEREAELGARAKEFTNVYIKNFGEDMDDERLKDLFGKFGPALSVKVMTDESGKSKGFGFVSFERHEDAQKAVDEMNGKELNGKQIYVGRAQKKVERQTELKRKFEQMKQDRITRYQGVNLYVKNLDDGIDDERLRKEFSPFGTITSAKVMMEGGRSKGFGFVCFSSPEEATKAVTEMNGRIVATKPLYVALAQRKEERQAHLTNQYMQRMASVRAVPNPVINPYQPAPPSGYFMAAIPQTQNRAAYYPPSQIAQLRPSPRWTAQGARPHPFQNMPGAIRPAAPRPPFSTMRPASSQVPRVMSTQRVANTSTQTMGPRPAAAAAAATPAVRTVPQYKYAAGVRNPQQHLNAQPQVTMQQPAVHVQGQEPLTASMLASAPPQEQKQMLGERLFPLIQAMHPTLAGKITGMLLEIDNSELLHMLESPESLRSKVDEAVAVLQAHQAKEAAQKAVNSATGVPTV
MT1-MMP act inh = inhibitors of human MT1-MMP activation | P50281 | HT1080 RFP-PRO-GFP cells, GFP/RFP ratio fluorescence, overnight; percent of plate control window, DMSO zero | 360,000 tested, 0.061% active | AID 651647 | GFP/RFP ratio change, % at 20 µM;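 active = GFP/RFP ratio change of at least 30% with cell ATP level not reduced by more than half and red fluorescence within 50% of control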; note: strong numbers were not always called active
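Assay system: HT1080 RFP-PRO-GFP cells. Benchmarks: DMSO vehicle wells and RFP-L50D-GFP reporter cell wells. Times: overnight cell settling, then overnight compound exposure, 37 °C, 5% CO2. Compound: 20 µM single dose, 1% DMSO. Read-out basis: GFP/RFP fluorescence ratio.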
Env fusion inh = inhibitors of HIV Env-mediated cell fusion; HeLa-JRFL Env/CEM21 cell fusion, luciferase; 360,000 tested, 1.1% active; inhibition, % at 12.3 µM;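 active = mean replicate inhibition score of at least 50 and every replicate individually at or above 50; inconclusive = only one of the two criteria met; inactive = mean below 50 and not all replicates reaching 50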;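 note: 0% = plate neutral controls and 100% = maraviroc near 300 nM; one replicate is shown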
CSC inhib = cancer stem cell inhibition; cancer stem cell-like cells viability, luminescence; inhibition, % at 7.5 µM; 300,000 tested, 1.1% active;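 active = mean at 75% or more and at least half the replicates too; inconclusive = mean and replicates disagree; tested in HMLE shEcad cells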;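 note: 0% = median of negative and 100% = median of positive control wells; the first replicate is given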
eIF4H inh = inhibitors of RNA binding by human eIF4H | Q15056 | eIF4H fluorescence polarization binding assay | AID 2012 | 290,000 tested, 0.94% active | inhibition, % at 35 µM;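 active = 50% or more with normal probe brightness, or confirmed in later tests; inconclusive = above 50% with abnormal brightness, or retests that disagree; inactive = below 50% or failed in later tests; about a fifth of its hits are not listed in these tables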;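 note: calls also rest on retests at 20 µM and on dose response follow-up; 0% = protein and probe with vehicle and 100% = probe without protein; strong numbers were not always called active; many hits fall short of the cut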
Rce1 inhib = yeast Ras-converting enzyme inhibition; Q03530; 290,000 tested, 0.27% active; calls only; yeast membranes, quenched prenylated peptide cleavage fluorescence; AID 2563;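 active = fall in fluorescence gain of 50% or more versus controls, with final raw signal at or below 3038400; inconclusive = same 50% fall but final raw signal above 3038400; inactive = fall in fluorescence gain under 50%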;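 note: plate controls were neutral control wells for no effect and wells lacking membranes for full effect; tested at 10 µM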
Target sequence (Q03530 whole entry, looked up): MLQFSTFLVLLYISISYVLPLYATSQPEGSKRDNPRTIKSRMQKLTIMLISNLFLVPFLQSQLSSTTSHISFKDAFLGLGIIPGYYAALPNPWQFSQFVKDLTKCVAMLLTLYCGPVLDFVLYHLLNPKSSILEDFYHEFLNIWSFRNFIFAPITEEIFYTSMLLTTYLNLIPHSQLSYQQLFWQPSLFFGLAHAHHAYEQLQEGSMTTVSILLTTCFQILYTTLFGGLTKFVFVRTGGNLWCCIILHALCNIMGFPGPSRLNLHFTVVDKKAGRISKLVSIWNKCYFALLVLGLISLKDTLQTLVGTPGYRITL
eIF4H inh retest = second read-out of eIF4H inh, no call of its own (marks repeat the call); inhibition, %; compound at 20 µM; confirmation average;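 mean of two retest wells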
PABP FP inh retest = recorded beside PABP FP inh, whose call it bears; inhibition, %; compound at 20 µM; confirmation repeats;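 mean of two retest wells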
MT1-MMP act inh RFP = recorded beside MT1-MMP act inh, whose call it bears; RFP signal change, %; measured here: RFP expression control read;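 0 = vehicle wells; hits needed this value within 50% of zero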
* hit, by the source's call; i = inactive; u = inconclusive; x = not tested or not shown; & = joins results of further samples. A portion of the library; the hit share may differ from the screen's.

SMILES	UUG fidelity	PABP FP inh	MT1-MMP act inh	MT1-MMP act inh RFP	Env fusion inh	CSC inhib	eIF4H inh	Rce1 inhib	others
CC(O)CNc1cc(N)c([N+](=O)[O-])cc1[N+](=O)[O-] (stereo not drawn)	x	4	-2	-1	-47	-6	6	i
CN(C)CCOC(=O)C1(c2ccccc2)CCOCC1	-17&4	-2&2	1&-2	-1&3	x	5&-10	0&-8	i
CC(=O)Nc1ccc(OS(=O)(=O)c2ccc([N+](=O)[O-])cc2)cc1	x	-6	-1	-1	4	-5	2	i
CCC(CC)c1nnc(NC(=O)C2=NNC(=O)CC2)s1	x	35	2	2	-8	-1	-1	i
N#Cc1ccc(/C=C/C(=O)c2cccnc2)cc1	-8	2	3	3	-58	-8	-1	i
COc1cc(/C=C2/SC(=O)NC2=O)ccc1Oc1ccc([N+](=O)[O-])cc1[N+](=O)[O-]	x	4	-4	-20	13	39	26	i
Cc1ccc2nc3c(cc(C(=O)NCC4CCCO4)c(=N)n3CCCOC(C)C)c(=O)n2c1 (stereo not drawn)	12	-6	4	2	20	x	7	u
Cc1c(Cl)cccc1NC(=O)c1cc(-c2ccco2)on1	-10	0	-1	3	-1	-1	8	i
COc1ccc(Nc2nnc(SCC(=O)/C=C3/N(C)c4ccccc4C3(C)C)s2)cc1	-8	6	3	-4	x	29	9	i
Cn1c(CO)cnc1SCc1c(Cl)cccc1Cl	-2	-5	0	3	-38	-9	6	i
CC1(C(=O)NCc2ccccc2)Oc2ccccc2NC1=O (stereo not drawn)	-14	-3	1	3	-147	-1	1	i
Cn1c2ccccc2c(=O)c2ccc(C#CC3(N)CCCCC3)cc21	6	22	5	2	-114	40	28	i
O=C(O)/C=C\C(=O)Nc1ccc(F)c(F)c1F	-17	2	3	3	-6	-1	16	i
O=C1[C@H](Cc2ccccc2)NCCCC[C@@H](c2ccco2)N1Cc1ccccc1	10	x	-4	-3	58*	x	x	x
CN(C)S(=O)(=O)c1ccc2c(c1)nc(CCC(=O)NCc1ccc(Cl)cc1)n2C	x	2	x	x	6	-5	2	i
Cn1nc(C(F)(F)F)c(-c2ccc(Br)cc2)c1NC(=O)c1nccnc1C(=O)O	-14	-8	1	2	-4	-9	-5	i
CC1CCc2c(sc3ncn(CCO)c(=O)c23)C1 (stereo not drawn)	-19	-3	5	2	-31	-12	6	i
CS(=O)(=O)N1CCC(C(=O)Nc2cccc(Cl)c2Cl)CC1	-15	2	-4	-2	4	-5	5	i
O=C(CN1C(=O)C2C3C=CC(C4CC34)C2C1=O)Nc1cnc2ccccc2c1 (stereo not drawn)	x	-2	1	0	-5	-9	-3	x
CC(C)(C)C1=NN=C2c3ccccc3C(=O)C21 (stereo not drawn)	-15	3	-4	-4	-20	-2	-8	i
CCCn1nnnc1NC(=O)c1cc(Cl)ccc1Cl	28	6	7	3	-10	12	1	i
CCOc1ccc(OCCC(=O)Nc2ccc3c(c2)OCO3)cc1	-24	x	6	7	6	-3	x	x
COc1ccc(S(=O)(=O)N(C)c2ccc(C(=O)NCc3ccccn3)cc2)cc1	2	3	-7	-4	-4	4	4	i
COC(=O)c1c(C)[nH]c(C)c1-c1ccc([N+](=O)[O-])cc1	x	1	0	-2	9	-9	-13	x
CCn1nnnc1SCC(=O)N1CCCCC1	-20	x	0	-1	-1	-9	x	i
COc1ccc(-n2c(Cn3nnc4ccccc43)nnc2SCC(=O)O)cc1	-20	18	-5	5	0	9	-5	i
CC(C)c1nnc(N2C(=O)c3oc4ccccc4c(=O)c3C2c2ccco2)s1 (stereo not drawn)	-19	7	-4	-6	x	-6	3	i
Cc1cn(CC(=O)NCCc2c[nH]c3ccccc23)c(=O)[nH]c1=O	5	x	1	3	-11	x	x	x
CC(C)Oc1ccc(S(=O)(=O)N2CCOCC2)cc1NC(=O)C1CSC2(C)CCC(=O)N12 (stereo not drawn)	x	x	7	3	11	-12	x	i
NC(=O)c1ccc[n+](CC(=O)c2ccccc2)c1	-4	19	0	2	6	-2	15	i
Cc1c(C(=O)Nc2nc(-c3ccccn3)cs2)oc2ccccc12	-35	x	-4	1	x	109*	x	x
NC(=O)C1CCN(C(=O)COc2cccc3ccccc23)CC1	x	2	0	1	x	-11	-8	i
COc1ccc(CNC(=O)C2Cc3c(-c4cccc(F)c4)ccnc3O2)cc1OC (stereo not drawn)	-3	x	0	0	13	x	x	x
Cc1ccc(C(CC(=O)O)C2CCOC(C)(C)C2)cc1 (stereo not drawn)	-10	-4	1	3	x	x	6	i
Cc1ccc(CNc2nc(-c3cccnc3)nc3ccccc23)cc1	-15	2	2	-5	2	-2	-11	x
Cc1ccc(S(=O)(=O)NC(=O)Nc2cc(C)ccc2F)cc1	-9	-3	-2	0	8	-7	-8	i
COc1cc(/C=N/NC(=O)CNC(=O)c2ccc3c(c2)OCCO3)ccc1O	-5	0	-1	1	-8	-10	0	x
Nc1nc(SCC(=O)Nc2cc(Cl)c(Cl)cc2Cl)n[nH]1	-12	x	3	-7	4	x	x	x
O=C(OCC#Cc1c(COC(=O)c2ccccc2)nnn1Cc1ccccc1)c1ccccc1	-10	10	-4	-1	16	-7	-9	i
CCCCN(CCCC)S(=O)(=O)c1ccc(NS(=O)(=O)c2ccc(NC(C)=O)cc2)cc1	x	0	3	-2	x	18	-11	x
CSc1nc2[nH]ncc2c(=O)n1-c1ccccc1	x	-5	4	1	3	-9	3	i
O=C(NN=C1CCCC1)c1ccccc1OCc1ccc(Cl)cc1	x	-2	-4	-6	-10	-4	-1	i
CCOc1ccccc1NC(=O)NC1CCCCCCC1	-3	15	-3	-5	10	-10	1	i
COc1cc(C2NC(=O)c3ccccc3O2)ccc1OC(C)C (stereo not drawn)	-7	2	-1	3	-5	-4	-10	i
CN1C(=O)N(c2ccccc2)C(Nc2nncs2)C1(C)C (stereo not drawn)	-6	-4	1	-1	x	-13	-2	i
CC1(C)OC(C)(C)/C(=C\c2ccc(OCC(N)=O)cc2)C1=O	-6	x	0	2	-15	-11	x	x
O=C(COc1cccc2ccccc12)N/N=C/c1ccncc1	2	-11	-3	-1	6	-9	-2	i
O=C(COc1ccc([N+](=O)[O-])cc1)Nc1ccccc1N1CCCC1	-15	1	2	-1	14	14	-7	i
O=C(Nc1ccccc1-c1nc2ccccc2s1)c1cccnc1Cl	-15	1	-9	-6	x	28	0	i
CC(=O)c1ccccc1NC(=O)COC(=O)c1c(C)nn(-c2ccccc2)c1C	-11	x	-3	-1	-7	x	x	x
C/C(=N\NC(=O)CSc1nc(C)[nH]c1[N+](=O)[O-])c1ccc(F)cc1	-22	5	4	-1	-14	-3	3	i
COc1ccc(CN(CC(=O)NCc2ccc(F)cc2)C(=O)CCC(=O)Nc2nccs2)cc1	0	-6	-1	-1	-4	-9	-4	i
Cc1ccc(/C=N/n2nnnc2N)o1	-23	4	-3	3	-144	-10	-16	i
CCCC(C)NC(=O)c1cc(S(=O)(=O)N2CCCCCC2)ccc1OC (stereo not drawn)	14	x	-2	-5	8	0	x	x
CS(=O)(=O)c1ccc2c(c1)sc1nc(=O)c(/C=C3/C=CC(=O)C(O)=C3)c(N)n12	x	u	4	14	-6	19	u	i
Cc1nn(C)c(C)c1S(=O)(=O)N1CCC(CO)(CC2CCCCO2)CC1 (stereo not drawn)	-10	-1	1	2	16	7	3	i
CCOc1ccccc1NC(=O)COC(=O)Cc1ccsc1	-13	x	1	1	15	x	x	x
Cn1c(=O)c2c(ncn2CC(COCc2ccccc2Cl)OCc2ccccc2Cl)n(C)c1=O (stereo not drawn)	1	3	-4	-10	-14	-3	-2	i
COc1ccc(-n2cc(C(=O)c3ccc4ccccc4c3O)cn2)cc1	-16	3	2	2	-5	2	0	i
CCOC(=O)c1cnc(-n2nc(C)cc2C)nc1N(CC)CC	-24	-16	2	3	-10	-3	-18	i

The list goes on.
SMILES	UUG fidelity	PABP FP inh	MT1-MMP act inh	MT1-MMP act inh RFP	Env fusion inh	CSC inhib	eIF4H inh	Rce1 inhib	others
CCN(CC)C(=O)C1CCCN(C(=O)c2cc(COc3cccc(OC)c3)on2)C1 (stereo not drawn)	0	-4	2	-1	x	-5	14	i
CCn1c(COc2ccccc2OC)nc2ccccc21	-18	2	-4	-2	-2	-7	1	i
COc1cc2c(cc1OC)C(c1cc(Br)c(OC)c(OC)c1)CC(=O)N2 (stereo not drawn)	-10	5	5	0	-4	-8	-8	i
COc1ccc(/C=N/Nc2nc(N3CCCC3)nc(N3CCCC3)n2)cc1	-16	2	2	-1	x	-10	-2	i
CNC(=O)c1nn(-c2ccc(Cl)cc2)ccc1=O	-14	-3	-1	4	x	-8	-6	i
COc1ccc(N2CCN(C3CC(=O)N(Cc4ccccc4)C3=O)CC2)cc1 (stereo not drawn)	-13	u	6	2	1	-22	3	i
CC(=O)Nc1ccc(OCc2cccc3ccccc23)cc1	-14	12	2	0	16	32	0	i
Cc1nc(-c2ccccc2)cc(N2CCCC2)n1	-24	4	4	2	x	2	-6	i
Cc1ccc(C(=O)OC(C)C(=O)c2cc(C)c(C)cc2C)o1 (stereo not drawn)	-6	-8	3	1	x	-4	2	i
O=[N+]([O-])c1ccc(N/N=C/c2ccc(O)c(O)c2O)c(S(=O)(=O)N2CCOCC2)c1	x	30*	10	0	-12	x	90	x	eIF4H inh retest=24;PABP FP inh retest=80*
O=C(c1ccc(Br)cc1)c1cc(-c2ccccn2)c(N2CCOCC2)s1	-10	-2	-14	-9	15	-22	-12	i
CCOc1ccc(/C(O)=C2/C(=O)C(=O)N(CC3CCCO3)C2c2cccs2)cc1 (stereo not drawn)	x	-2	1	2	-16	17	-4	i
O=C(Nc1ccc(Cc2ccncc2)cc1)c1ccc(S(=O)(=O)N2CCCC2)cc1	x	0	-1	-23	17	x	0	i
CC12CCC(=O)C=C1CCC1C2CCC2(C)C(c3csc(N)n3)CCC12 (stereo not drawn)	-5	x	6	-29	-1	x	x	x
c1ccc(C(c2ccccc2)c2noc(CN3CCC(c4ccncc4)CC3)n2)cc1	-6	-16	3	1	13	31	-3	i
CC(C)(C)OC(=O)N1CCC[C@H]1C(=O)Nc1ccc(S(=O)(=O)C(F)F)cc1	-12	-1	1	-4	17	-23	-3	i
O=C1CCc2cc(S(=O)(=O)Nc3ccccc3)cc3c2N1CC3	x	x	10	3	0	10	x	i
COc1ccccc1C(=O)N/C(=C\c1cn(C)c2ccccc12)C(=O)N1CCCC1	-10	14	0	2	1	-12	-15	i
CCOc1ccc(NC(=O)CN(C)C(=O)c2cn(-c3ccc(C)cc3)nc2-c2cccc(OC)c2)cc1OCC	-6	x	1	-7	22	x	x	x
COc1ccc(NC(=O)c2ccco2)c(NC(=O)Cc2cccs2)c1	-12	8	-4	0	x	-12	12	i
COc1cc(Br)cc(/C=N/c2ncn[nH]2)c1O	-23	8	-5	1	x	-2	13	i
O=C(O)c1ccccc1Cc1nc2cc(Cl)ccc2c(=O)[nH]1	x	9	0	0	-12	x	-3	i
Cn1cc(C(=O)N/N=C/C(Br)=C\c2ccccc2)ccc1=O	1	28*	-8	-12	x	47	57*	i	eIF4H inh retest=68*;PABP FP inh retest=53*
